# Screening results: PubChem BioAssay, several laboratories
# PABP FP inh – PABP poly(A) RNA binding inhibitors, primary screen, biochemical, fluorescence polarization, uHTS. Polyadenylate-binding protein 1 (Homo sapiens), P11940. inhibition, % at 35 µM. 290,000 compounds, 1% hits. AID 2014, 2009;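 active = 50% or more with normal probe brightness, or confirmed in later tests; about a fifth of its hits are not listed in these tables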;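 note: calls also rest on retests at 20 µM and on dose response follow-up; controls were probe without protein and protein plus probe with vehicle; some compounds called inactive have numbers as strong as hits; many hits fall short of the cut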
# Target sequence (P11940 whole entry, looked up): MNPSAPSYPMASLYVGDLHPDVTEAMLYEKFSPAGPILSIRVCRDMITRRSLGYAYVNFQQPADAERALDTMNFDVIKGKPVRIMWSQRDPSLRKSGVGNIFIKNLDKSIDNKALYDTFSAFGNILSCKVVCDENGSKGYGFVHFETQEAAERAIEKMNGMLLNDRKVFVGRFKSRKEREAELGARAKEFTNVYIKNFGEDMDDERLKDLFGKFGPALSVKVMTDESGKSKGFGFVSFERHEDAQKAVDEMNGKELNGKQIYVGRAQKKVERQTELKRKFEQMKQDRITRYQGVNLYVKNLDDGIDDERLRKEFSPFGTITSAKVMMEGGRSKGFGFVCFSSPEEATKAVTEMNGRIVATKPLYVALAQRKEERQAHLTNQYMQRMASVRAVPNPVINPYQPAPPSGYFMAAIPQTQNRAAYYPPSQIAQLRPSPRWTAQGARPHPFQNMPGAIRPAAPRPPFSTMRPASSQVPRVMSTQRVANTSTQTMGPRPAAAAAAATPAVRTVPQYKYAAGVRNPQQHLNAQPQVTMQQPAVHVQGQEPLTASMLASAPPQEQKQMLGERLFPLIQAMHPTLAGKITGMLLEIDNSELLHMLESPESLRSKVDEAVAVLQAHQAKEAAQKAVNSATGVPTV
# Yeast UUG start – modulators of yeast start codon fidelity, primary screen, whole organism, S. cerevisiae, single point, plate reader; AID 602363, 2012; 350,000 compounds, 0.13% hits; activity score, % at 18.7 µM; S. cerevisiae UUG-firefly luciferase reporter, luminescence/redox ratio;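 active = replicate mean at a twofold rise or more, about +100% in these data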;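 note: firefly luciferase made from a UUG start codon reports start codon fidelity; reporter light over untreated wells divided by growth signal over untreated wells; some hits fall short of that in this replicate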
# eIF4H inh – human eIF4H binding inhibitors, primary screen, translation initiation inhibitor project, biochemical, uHTS, fluorescence polarization; Eukaryotic translation initiation factor 4H (Homo sapiens), Q15056; eIF4H fluorescence polarization binding assay; inhibition, % at 35 µM; 290,000 compounds, 0.94% hits; AID 2012, 2009;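 active = 50% or more with normal probe brightness, or confirmed in later tests; about a fifth of its hits are not listed in these tables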;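 note: calls also rest on retests at 20 µM and on dose response follow-up; 0% = protein and probe with vehicle and 100% = probe without protein; strong numbers were not always called active; many hits fall short of the cut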
# Rce1 inh – yeast Rce1p protease inhibitors, primary screen, biochemical, fluorescence, cell-free homogeneous | CAAX prenyl protease 2 (Saccharomyces cerevisiae (strain ATCC 204508 / S288c)), Q03530 | yeast membranes, quenched prenylated peptide cleavage fluorescence | calls only | 290,000 compounds, 0.27% hits | AID 2563, 2010;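 active = fall in fluorescence gain of 50% or more versus controls, with final raw signal at or below 3038400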;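 note: plate controls were neutral control wells for no effect and wells lacking membranes for full effect; tested at 10 µM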
# MT1-MMP act inh – blockers of MT1-MMP proenzyme processing, primary screen, HT1080 RFP-PRO-GFP cells, GFP/RFP fluorescence. GFP/RFP ratio change, % at 20 µM. 360,000 compounds, 0.061% hits. GFP/RFP ratio fluorescence, overnight; percent of plate control window, DMSO zero. AID 651647, 2012;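 active = GFP/RFP ratio change of at least 30% with cell ATP level not reduced by more than half and red fluorescence within 50% of control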; note: strong numbers were not always called active
#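 Assay system: HT1080 cells carrying an RFP-PRO-GFP reporter | Dosing: Single dose of 20 µM compound, 1% DMSO final | Incubation: Cells overnight before dosing, compound overnight, 37 °C, 5% CO2 | Evaluation: GFP/RFP fluorescence ratio | Control set: DMSO and RFP-L50D-GFP cell wells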
# CSC inhib – cancer stem cell viability inhibitors, primary screen, luminescence. AID 2717, 2010. cancer stem cell-like cells viability. 300,000 compounds, 1.1% hits. inhibition, % at 7.5 µM;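 active = mean at 75% or more and at least half the replicates too; tested in HMLE shEcad cells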;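 note: 0% = median of negative and 100% = median of positive control wells; the first replicate is given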
# HIV Env fusion – inhibitors of HIV-1 Env-driven cell-cell fusion, primary screen, HeLa-JRFL effector, CEM21 target cells, luciferase; 360,000 compounds, 1.1% hits; inhibition, % at 12.3 µM; AID 651610, 2012;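 active = mean replicate inhibition score of at least 50 and every replicate individually at or above 50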;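 note: 0% = plate neutral controls and 100% = maraviroc near 300 nM; one replicate is shown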
# eIF4H inh retest – further read-out of eIF4H inh, marked with its call; inhibition, %; compound at 20 µM; confirmation average;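 mean of two retest wells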
# PABP FP inh retest – further read-out of PABP FP inh, marked with its call; inhibition, %; compound at 20 µM; confirmation repeats;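 mean of two retest wells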
# MT1-MMP act inh RFP – second read-out of MT1-MMP act inh, no call of its own (marks repeat the call); RFP signal change, %; measured here: RFP expression control read;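 0 = vehicle wells; hits needed this value within 50% of zero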
# Starred values were filed as active, the others as inactive; i = inactive; nt = no result given.
SMILES,PABP FP inh,Yeast UUG start,eIF4H inh,Rce1 inh,MT1-MMP act inh,MT1-MMP act inh RFP,CSC inhib,HIV Env fusion,others
Cc1nc(CNC(=O)C2CCC(=O)N(Cc3cccc(F)c3)C2)sc1C (stereo not given),11,-10,-1,i,2,4,17,8,
NC(=O)C1CCCN(C(=O)NC2CCCCC2)C1 (stereo not given),4,2,-2,i,1,4,3,nt,
O=C(O)C1Cc2ccccc2CN1C(=O)CCl (stereo not given),-8,nt,11,i,-1,2,-11,-2,
C=CCn1c(P(=O)(O)c2ccccc2)nc2ccccc21,-9,-31,-14,i,0,3,2,-11,
CCCn1c(=N)n(CC(=O)C(C)(C)C)c2ccccc21,3,-7,-3,i,2,1,-3,nt,
CCC(=O)NC(NC(=S)Nc1ccc(S(N)(=O)=O)cc1)C(Cl)(Cl)Cl (stereo not given),-2,-18,0,i,7,9,-2,-36,
FC(F)(F)c1ccc(Cl)c(NC(=S)N/N=C/c2ccccc2C(F)(F)F)c1,10,nt,10,i,-1,-3,4,-136,
CC1=C(C(=O)OC(C)C)C(c2ccccc2)NC(=S)N1C (stereo not given),22,-20,-10,i,0,-1,-9,-5,
Cc1cc(S(=O)(=O)Nc2ccc(C(=O)N3CCN(C(=O)c4ccco4)CC3)cc2)ccc1F,-1,9,-4,i,6,0,11,4,
CC(/C=C/c1ccco1)=N\NC(=O)COc1ccc(C)c(C)c1,5,nt,3,i,-2,3,26,10,
COc1cc(-c2ccc(NC(=O)NC3CC3)c(OC)c2)ccc1NC(=O)NC1CC1,-7,nt,-11,i,nt,nt,15,-152,
COc1ccccc1Oc1nc(-c2ccccc2)cc(C)c1S(C)(=O)=O,-2,-20,-2,i,-3,-3,14,nt,
O=C(NN1CCCCC1)c1cccc2ccccc12,-7,-21,6,i,1,5,2,21,
Cc1ccc(C(=O)N/C(=C\c2ccc(-c3ccc(Cl)cc3)o2)C(=O)NCCCN(C)C)cc1,3,nt,6,i,-4,3,6,7,
Cc1ccc(S(=O)(=O)NCCC(=O)N2CC(C)OC(C)C2)cc1C (stereo not given),nt,nt,nt,i,-4,1,4,nt,
CCc1cccc(NC(=O)CCS(=O)(=O)c2ccc(Br)cc2)c1,24,6,81*,i,-4,-2,-1,8,eIF4H inh retest=97*;PABP FP inh retest=44
COc1ccc(NC(=O)Cc2cccs2)cc1S(=O)(=O)N1CCCCC1,nt,2,nt,nt,1,-2,-4,nt,
Cc1cccc(S(=O)(=O)N2CCCc3ccccc32)c1,4,-5,-2,i,0,0,0,8,
Clc1ccc(-c2nnc(SCc3cn4ccsc4n3)n2CC2CCCO2)cc1 (stereo not given),-5,-28,3,i,-4,-1,-14,nt,
CCn1ccnc1CN(C)Cc1nc(-c2ccc(C(=O)OC)cc2)no1,-1,-13,0,i,-7,-4,-12,2,
O=C1C2N=NN(CC(=O)N3N=C(c4ccccc4)CC3c3ccc([N+](=O)[O-])cc3)C2C(=O)N1c1ccccc1 (stereo not given),-2,nt,0,i,nt,nt,12,-13,
C/C(Cl)=C/Cn1c(NCCN(C)C)nc2c1c(=O)n(C)c(=O)n2C,-3,-8,-6,i,-3,0,9,-71,
COc1ccccc1N1CCN(CC(=O)Nc2c(C)n(C)n(-c3ccccc3)c2=O)CC1,11,-13,14,i,1,2,-13,-1,
COCCNCCCCOc1c(Cl)cc(C)cc1Br,10,5,4,i,0,1,37,-31,
Cc1c(CCC(=O)NCCCN2CCCC2=O)c(=O)oc2c(C)c(O)ccc12,13,-3,-5,i,2,0,-2,nt,
# Later entries:
SMILES,PABP FP inh,Yeast UUG start,eIF4H inh,Rce1 inh,MT1-MMP act inh,MT1-MMP act inh RFP,CSC inhib,HIV Env fusion,others
Brc1ccc(-c2nnc(-c3cccnc3)o2)cc1,nt,nt,nt,i,1,0,-2,-49,
Cc1onc(-c2c(F)cccc2Cl)c1C(=O)NNC(=O)C1CCN(Cc2ccccc2)CC1,-6,nt,-4,i,1,-1,-1,7,
CCC(=O)Nc1ccc2nc(C3CC3)n(Cc3ccc(C(C)(C)C)cc3)c(=O)c2c1,13,-6,1,i,-6,-23,11,-102,
NN=C1c2ccccc2C(=O)C1C(=O)C(c1ccccc1)c1ccccc1 (stereo not given),nt,-19,nt,nt,-17,52,nt,30,
CC(=O)NC(CC(=O)Nc1ccc(S(=O)(=O)N2CCCC2)cc1)c1ccccc1 (stereo not given),8,7,-7,i,-4,-14,0,27,
Cc1ccc(OCC(=O)N/N=C\c2cccs2)c([N+](=O)[O-])c1,-6,-33,0,i,3,4,nt,9,
CCc1nc(N2CCN(C(=O)CCCl)CC2)c2c3c(sc2n1)CCCC3,nt,-16,nt,nt,-4,-6,nt,29,
C[C@H](NC(=O)c1ccco1)C(=O)N1CCCC1,1,nt,-1,i,-1,0,-6,1,
CC(C)(C)NC(=O)C(c1ccncc1)N(Cc1cccs1)C(=O)c1csnn1 (stereo not given),-12,1,-9,i,0,5,-10,7,
CCCC[n+]1ccn(C2=C([O-])c3ccccc3C(=O)/C2=N\S(=O)(=O)c2ccccc2)c1,7,-6,-8,i,-2,-6,20,-16,
COc1cccc(CNC(=O)C(NS(=O)(=O)c2ccc3c(c2)CCN3C(C)=O)C(C)C)c1 (stereo not given),nt,7,nt,i,-5,2,-5,4,
c1ccc(CN2CCC3CC2c2ccc(N4CCOCC4)cc23)cc1 (stereo not given),nt,-3,nt,nt,2,-1,nt,-20,
Cc1cc(Nc2ccccc2Cl)c2ccccc2n1,nt,-7,nt,i,7,-5,-8,10,
Cc1ccc(-c2cc3nc(-c4ccccc4)cc(N4CCC5(CC4)OCCO5)n3n2)cc1,47,-6,2,i,10,5,58,nt,
COC(=O)C1=C(C)N(Cc2ccccc2)C(=NCc2cc(OC)c(OC)c(OC)c2)N[C@H]1c1cccc(F)c1,9,-13,-1,i,0,-1,-2,nt,
O=c1sc2ccccc2c(N2CCN(c3ccccc3)CC2)c1[N+](=O)[O-],2,nt,1,i,3,3,-11,6,
COCCNC(=O)CN1CCC(NC(=O)Nc2ccccc2)CC1,-1,-22,-7,i,-1,7,-10,-27,
O=C(CSc1cccc2cccnc12)Nc1cccc(S(=O)(=O)N2CCOCC2)c1,-3,nt,-6,i,-2,-3,-13,-87,
COc1cccc(NC(=O)C(=O)NCCC2CCCCN2S(=O)(=O)c2ccccc2)c1 (stereo not given),nt,-11,nt,i,5,-2,1,-44,
COc1ccc(N)cc1S(=O)(=O)Nc1ccccc1Cl,0,-14,-7,i,0,1,8,-14,
Cc1ccnn1CCC(=O)N1CCCC(CCC(=O)NCc2ccccc2F)C1 (stereo not given),-9,nt,2,i,2,5,-3,0,
O=C(COC(=O)c1cccc(S(=O)(=O)N2CCCC2)c1)Nc1cccc(Br)c1,nt,-2,nt,nt,1,6,nt,-15,
O=C(Nc1nc2ccc(C(=O)N3CCCCC3)cc2s1)C1CCCCC1,-7,nt,-4,i,-2,-10,57,3,
CC(C)CC(/C(O)=C(\C#N)c1nc2ccccc2[nH]1)N1C(=O)c2ccccc2C1=O (stereo not given),1,-23,10,i,-60,-40,nt,nt,
Cc1onc(-c2ccccc2Cl)c1C(=O)N1CCOC12CCCCC2,2,-2,6,i,2,0,-10,12,

# Arranged by formula weight (rising): three of the compounds above
SMILES,PABP FP inh,Yeast UUG start,eIF4H inh,Rce1 inh,MT1-MMP act inh,MT1-MMP act inh RFP,CSC inhib,HIV Env fusion,others
O=c1sc2ccccc2c(N2CCN(c3ccccc3)CC2)c1[N+](=O)[O-],2,nt,1,i,3,3,-11,6,
CC(=O)NC(CC(=O)Nc1ccc(S(=O)(=O)N2CCCC2)cc1)c1ccccc1 (stereo not given),8,7,-7,i,-4,-14,0,27,
O=C(CSc1cccc2cccnc12)Nc1cccc(S(=O)(=O)N2CCOCC2)c1,-3,nt,-6,i,-2,-3,-13,-87,

# (next part)
SMILES,PABP FP inh,Yeast UUG start,eIF4H inh,Rce1 inh,MT1-MMP act inh,MT1-MMP act inh RFP,CSC inhib,HIV Env fusion,others
CCN1C(=O)N[C@H](c2ccccc2)C(C(C)=O)=C1C,nt,-4,nt,i,-3,0,-7,-5,
Clc1ccc(N2CCN(c3nc4nonc4nc3N3CCSCC3)CC2)nc1,-12,-8,12,i,0,1,-3,11,
O=C(CSc1ncn(-c2ccccc2)n1)N1CCN(c2ccccc2)CC1,1,-2,-8,i,7,11,-15,-21,
O=C(N/N=C/C=C/c1cccc([N+](=O)[O-])c1)c1ccncc1,3,-2,0,i,0,3,nt,0,
CCOC(=O)N1CCN(C(=O)CSC2=NS(=O)(=O)c3ccccc3N2)CC1,nt,nt,nt,i,-6,0,10,1,
COC(=O)c1c(C)[nH]c(C)c1-c1ccc(C)cc1,-2,-11,0,i,-1,-1,-7,nt,
O=C(NC1CCCC1)c1cc(-c2cccs2)on1,1,-19,6,i,10,3,18,i,
CCCCNC(=O)CC(C(=O)N1CCc2ccccc21)n1ccnc1 (stereo not given),1,-22,-3,i,nt,nt,nt,-13,
CC(Sc1n[nH]c(=O)n1Cc1ccccc1)C(=O)NC1CCCCC1C (stereo not given),nt,nt,nt,i,-1,-1,-5,6,
CC(C)Cc1nc(N2CCOCC2)c(C#N)c2c1CCC2,-6,-22,2,i,1,3,nt,nt,

# In the list so far, eight have an aryl methoxy group.
SMILES,PABP FP inh,Yeast UUG start,eIF4H inh,Rce1 inh,MT1-MMP act inh,MT1-MMP act inh RFP,CSC inhib,HIV Env fusion,others
COc1cc(-c2ccc(NC(=O)NC3CC3)c(OC)c2)ccc1NC(=O)NC1CC1,-7,nt,-11,i,nt,nt,15,-152,
COc1ccccc1Oc1nc(-c2ccccc2)cc(C)c1S(C)(=O)=O,-2,-20,-2,i,-3,-3,14,nt,
COc1ccc(NC(=O)Cc2cccs2)cc1S(=O)(=O)N1CCCCC1,nt,2,nt,nt,1,-2,-4,nt,
COc1ccccc1N1CCN(CC(=O)Nc2c(C)n(C)n(-c3ccccc3)c2=O)CC1,11,-13,14,i,1,2,-13,-1,
COc1cccc(CNC(=O)C(NS(=O)(=O)c2ccc3c(c2)CCN3C(C)=O)C(C)C)c1 (stereo not given),nt,7,nt,i,-5,2,-5,4,
COC(=O)C1=C(C)N(Cc2ccccc2)C(=NCc2cc(OC)c(OC)c(OC)c2)N[C@H]1c1cccc(F)c1,9,-13,-1,i,0,-1,-2,nt,
COc1cccc(NC(=O)C(=O)NCCC2CCCCN2S(=O)(=O)c2ccccc2)c1 (stereo not given),nt,-11,nt,i,5,-2,1,-44,
COc1ccc(N)cc1S(=O)(=O)Nc1ccccc1Cl,0,-14,-7,i,0,1,8,-14,

# This is a subset. The share of hits here may be higher or lower than overall.
